VACV mCherry inh: vaccinia inhibition (mCherry reporter); Vaccinia virus mCherry reporter infection, fluorescence; about a quarter of the inactives have no number; Potency, µM (titrated, usually from 36.5 µM), for the others: top-dose activity change, negative = inhibition, most hits filed as inhibitors; 0.63% of 310,000 active; active = well fitted inhibition curve with a large enough effect; inconclusive = small, poorly fitted or top-dose-only effect; inactive = no such curve, though single readings can be large or run the other way; tested in A549 cells; also: nearly all actives have a fitted effect of over 35% in size; inactives centre near -10
VACV Venus inh: inhibitors of vaccinia virus (Venus reporter); Vaccinia virus Venus reporter expression, fluorescence; Potency, µM (highest dose often 36.5 µM), without a hit: at the highest dose activity change, negative = inhibition, usual class: inhibitors; 0.46% of 330,000 active; AID 720580; active means well fitted inhibition curve with a large enough effect; inconclusive means small, poorly fitted or top-dose-only effect; inactive means no such curve, though single readings can be large or run the other way; tested in A549 cells; also: nearly all actives have a fitted effect of over 30% in size; inactives centre near -10
Starred values were filed as active, the others as inactive; i = inactive; ? = inconclusive; · = not tested or not shown; & = joins results of further samples; [ ] = another dose, or the depositor's remark. % is scaled to controls: 0 for no effect and ±100 for the full control effect; potency is read from the fitted curve at half-maximal effect.

SMILES | VACV mCherry inh | VACV Venus inh
CCN(CC)C(=O)[C@H]1C[C@H](CC(=O)NCc2ccc(OC)c(OC)c2)C(=O)N2CCc3c([nH]c4ccc(Cl)cc34)[C@]12C | i | ?
O=C(c1ccncc1)c1ccc(NC(=O)c2cccs2)cc1 | -2% | 6%
O=C(c1cccs1)N1CCc2c([nH]c3ccccc23)C1c1ccc(Cl)cc1 (centres undefined) | · | -18%
Cc1ccc(S(=O)(=O)Nc2cccc(C(=O)NCc3cccnc3)c2)cc1F | ? | ?
Cc1cccc(N2C(=O)NC(=O)/C(=C\c3cnn(-c4ccccc4)c3)C2=O)c1 | · | -17%
COc1ccc(N2CCN(CC(O)COCc3ccccc3)CC2)cc1 (centres undefined) | -15% | 2%
CC(C)(C)OC(=O)N(CCc1ccccc1)Cc1ccc(OCc2cccc(NC(=O)C3CC3)c2)cc1 | i | -26%
CCOC(=O)c1c(N)sc(C(N)=O)c1C | -12% | -15%
COCC(=O)Nc1cc(Cl)c(OC)cc1OC | -4% | -23%
COC(=O)COc1ccc(-c2ccccc2)cc1C=O | -5% | -21%
COCCNC(=O)C1CCCN(Cc2ccc(C(C)C)cc2)CC1 (centres undefined) | i | -2%
CCn1c(CNc2ccc(OC)cc2)nnc1SCC(=O)N1CCCc2ccccc21 | i | -12%
Cc1cccc(C(=O)OCC(=O)NC(C)CCc2ccccc2)c1O (centres undefined) | i | -4%
COC1C(C)=C(C)C(=O)N1Cc1ccc(F)cc1 (centres undefined) | -9% | -11%
CNC1(C)[C@H]2CC[C@H](C2)C1(C)C (some centres undefined) | -22% | -14%
COc1ccccc1C(=O)COC(=O)Cc1ccccc1F | -11% | 1%
CC(C)C[C@@H](CO)N1CCN(C)CCC1=O | -24%&-20% | 5%&-11%
Cn1c(C(N)=O)cnc1Sc1ncc(C(F)(F)F)cc1Cl | ? | ?
Cc1nc(NC(=O)CSc2nnc(Cn3nnc4ccccc43)n2C)sc1C | -19% | -15%
CCOC(=O)c1ccccc1NC(=O)CSc1nc2[nH]ncc2c(=O)[nH]1 | -16% | -16%
N#Cc1c(/N=C/c2c(O)n(Cc3ccco3)c(=O)[nH]c2=O)sc2c1CCCC2 | -13% | 4%
CC1(C)Cc2c(C#N)c(NCCCO)nc(-c3ccccc3)c2CO1 | -11% | -7%
Cc1ccc(NC(=O)CCCn2c(=O)c3cccn3c3ccccc32)cc1C | -21% | -21%
CCCCOc1ccc(CSCCNC(=S)Nc2ccccc2)cc1 | -27% | -18%
NC(=O)CSc1nnnn1-c1ccc2c(c1)OCCO2 | · | -14%

A different layout for some results above.
canonical_smiles	VACV mCherry inh	VACV Venus inh
Cc1ccc(S(=O)(=O)Nc2cccc(C(=O)NCc3cccnc3)c2)cc1F	?	?
Cc1cccc(N2C(=O)NC(=O)/C(=C\c3cnn(-c4ccccc4)c3)C2=O)c1	·	-17%

(listing goes on)
SMILES | VACV mCherry inh | VACV Venus inh
CC1(C)CC2(CCO1)C(Nc1ccccc1)=NC(=S)N2c1ccccc1 (centres undefined) | -22% | -12%
O=C(O)/C(=C\c1ccc(Cl)cc1)c1ccc(S(=O)(=O)N2CCCC2)s1 | -13% | -21%
O=C(c1ccco1)n1nc(-c2ccc(Cl)cc2)nc1NCc1ccccc1 | -26%[7.34 µM] | -15%[7.34 µM]
CCN(CC(=O)Nc1ccccc1OC)C(=O)CN1C(=O)NC2(CCCC2)C1=O | -19% | -4%
COC(=O)C1=C(C(=O)OC)[C@@H]2Nc3ccccc3[C@@]23C[C@@H](C(=O)OC)N(C(=O)c2cc(C)oc2C)C3=N1 | -1% | -26%
CCOC(=O)c1cc(-c2ccccc2)n(CCC(=O)N2CCN(c3ccccc3OC)CC2)c1C | -24% | -25%
CC1CCCCN1C(=O)CN1CCSc2ccccc21 (centres undefined) | -5% | 5%
COC(=O)c1ccccc1NC(=O)C(C)NS(=O)(=O)c1ccc(OC)cc1 (centres undefined) | i | -11%
Cc1nc([N+](=O)[O-])c(C(=O)OCc2ccccc2C#N)n1C | i | -9%
Cc1ccc(S(=O)(=O)NCCCOC(=O)Nc2ccncc2)cc1 | · | -10%
O=C(Nc1cccc(-c2cn3cccnc3n2)c1)c1cc(Br)ccc1Cl | i | -12%
CCOc1ccc(NC(=O)c2ccc(NS(=O)(=O)c3cccc4cccnc34)cc2)cc1 | i | -10%
Cc1ccccc1Cn1c(C)nc2ccccc21 | -1% | -8%
CCOC(=O)c1cc2c(N)c(C(=O)c3cc(C#N)c(SC)nc3C)sc2nc1C | i | -15%
Cc1nc2c(cnn2-c2ccccc2)c(=O)n1/N=C/c1ccccc1 | -26% | -24%
CCN(Cc1ccncc1)C(=S)Nc1ccc(Cl)cc1 | i | -10%
COc1ccc(C2C(C(=O)N3CCN(c4ccccc4F)CC3)c3ccccc3C(=O)N2C)cc1 (centres undefined) | -19% | -16%
Nc1nc(N)c(N=Nc2ccc(SCC(=O)O)cc2)c(=O)[nH]1 | i | -9%
Cc1cccc(NC(=O)C(=O)NCCc2sc(-c3ccccc3)nc2C)c1C | ? | 0%
COc1ccc(CN2CCCC(c3nc(-c4ccncc4)ncc3-c3ccccc3C)C2)c(OC)c1 (centres undefined) | -30% | -20%
COc1ccc([N+](=O)[O-])cc1NC(=O)C(C)NNC(=O)c1cccc([N+](=O)[O-])c1 (centres undefined) | -11% | -21%
CC(Oc1ccccc1)C(=O)N[C@@H]1C(=O)N2C(C(=O)OCC3CCCCC3)C(C)(C)S[C@H]12 (some centres undefined) | i | -9%
COc1ncnc(NS(=O)(=O)c2ccc(N)cc2)c1OC | i | -13%
COc1ccc(CCNc2ncnc3sc(C)cc23)cc1OC | ? | -17%
CC(C)n1c(SCCCc2ccccc2)nc2c1c(=O)[nH]c(=O)n2C | ? | -17%

Following part.
SMILES | VACV mCherry inh | VACV Venus inh
COc1ccc(C(=O)N2CCN(C)C(=O)[C@@H]2C)cc1OC1CCN(C(C)C)CC1 | -2% | -7%
CCc1ccccc1NC(=S)N(CCN(C)C)Cc1cccs1 | -22% | -14%
COc1ccc2c(c1)c(=O)c(S(=O)(=O)c1ccccc1)cn2CC(=O)Nc1ccc(C)c(Cl)c1 | -13% | -16%
Cc1onc(-c2c(Cl)cccc2Cl)c1C(=O)NCC1CCCO1 (centres undefined) | -22% | -7%
COc1ccc(S(=O)(=O)N2CCCC2CNC(=O)C(=O)NC2CCCC2)cc1 (centres undefined) | -12% | -14%
O=C(Cn1nnc(-c2ccccc2F)n1)NCCc1ccccc1 | -13% | 1%
Cc1ccc2nc3c(c(C(=O)OCC(=O)N(C)C4CCS(=O)(=O)C4)c2c1)CCCC3 (centres undefined) | -9% | -10%
COc1ccccc1C(=O)NCCC(=O)NCC(c1ccco1)N1CCCCC1 (centres undefined) | -2% | -12%
CSC1=NN(c2ccccc2)CN(c2ccccc2)N1C | -4% | -5%
CCn1c(SCC(=O)Nc2ccc(C)cc2)nc2nc3c(cc2c1=O)COC(C)(C)C3 | 5% | 2%
CC1=NN(C(C#N)c2c(C)nn(Cc3ccccc3)c2C)C(C)(C)C1 (centres undefined) | i | -10%
C=C(C)COc1ccc(-c2[nH]ncc2Oc2ccc(OC)cc2)c(O)c1 | 14µM* | ?
CC(=O)c1ccc(N2CCN(S(=O)(=O)c3ccc(-c4cnc(C5CC5)o4)cc3)CC2)cc1 | ? | ?
CCOCCCNCc1ccc(OCCC(C)C)c(OC)c1 | i | 8%
NCC/C=C1/c2ccccc2CSc2ccccc21 | ? | ?
CC(C)c1ccc(NC(=O)CCS(=O)(=O)c2ccc(Br)s2)cc1 | -12% | -4%
COc1ccc(C(=O)C2CCN(C(=O)c3ccc(F)cc3)CC2)cc1 | i | -1%
CN(C(=O)CSc1nnc(-c2ccccc2F)o1)C1CCCCC1 | 9% | 3%
Cc1ccc(N2CC(C(=O)Nc3ccc(S(=O)(=O)Nc4nccs4)cc3)CC2=O)cc1C (centres undefined) | i | -10%
Cc1ccc(NC(=S)NCCc2ccc(Cl)cc2)c(C)c1 | ? | -21%
O=C(c1ccc(Cl)cc1)N1CCN(C(=O)C2CCCCC2)CC1 | -8% | 5%
Cc1ccccc1Oc1ccc2c(c1)[C@@H]1C[C@H](N(C)C(=O)c3ccc(C#N)cc3)[C@H]([C@H](C)O)C(=O)N1CC2 | -21% | -7%
Cc1ccc(-n2ncc3c2CC(C)(C)CC3NC(=O)c2c(C)noc2C)cc1 (centres undefined) | -27% | -23%
CC(=O)Nc1cccc(NC(=O)CSc2nnc3ccc(-c4cccnc4)nn23)c1 | -12% | -13%
CS(=O)(=O)N(CCc1ccccc1)CC(=O)NCc1ccccc1Cl | i | -14%

Look-ups from the entries so far.
`COc1ccc(S(=O)(=O)N2CCCC2CNC(=O)C(=O)NC2CCCC2)cc1` (centres undefined) | VACV mCherry inh = -12%
`CCOC(=O)c1c(N)sc(C(N)=O)c1C` | VACV mCherry inh = -12%
`CCN(CC(=O)Nc1ccccc1OC)C(=O)CN1C(=O)NC2(CCCC2)C1=O` | VACV mCherry inh = -19%
`CN(C(=O)CSc1nnc(-c2ccccc2F)o1)C1CCCCC1` | VACV Venus inh = 3%
`CC(C)c1ccc(NC(=O)CCS(=O)(=O)c2ccc(Br)s2)cc1` | VACV mCherry inh = -12%
`COc1ccc2c(c1)c(=O)c(S(=O)(=O)c1ccccc1)cn2CC(=O)Nc1ccc(C)c(Cl)c1` | VACV Venus inh = -16%

The listing continues:
SMILES | VACV mCherry inh | VACV Venus inh
O=C(NC1CC1)C1=C[C@H](c2coc3ccccc3c2=O)C[C@H](OCc2ccc(CO)cc2)O1 | i | -9%
CC(=O)N1C[C@H]2CON(C)[C@H]2C[C@H]1c1cccc(N2CCOCC2)c1 | -12% | -11%
COc1ccc(-c2csc(N(CC(C)C)C(=O)c3ccco3)n2)cc1 | -19% | -3%
Cn1nccc1C(=O)Nc1ccccc1C(=O)O | · | -11%
Cc1ccc(NC(=O)N2CC3CCCN3c3ccccc32)cc1Cl (centres undefined) | -8% | -14%
CCOC(=O)CSc1nnc(CNC(=O)c2ccccc2OC)n1-c1ccc(OC)cc1 | i | -12%
CC(CCCC(C)(C)O)CC1C2=C(CCCC2=O)OC2=C1C(=O)CCC2 (centres undefined) | i | -7%
COc1ccc(NC(=O)CN2C(=O)NC3(CCCC3)C2=O)cc1Cl | i | -1%
Cc1cccc(N2CCN(C(=O)c3cc4c(=O)n(C)c5ccccc5c4s3)CC2)c1C | ? | -23%
FC(F)Oc1ccccc1/C=N/n1cnc2ccccc21 | i | -7%
COc1cc(C(=O)Nc2ccc3[nH]c(=O)sc3c2)cc(OC)c1OC | 21% | 20%
CC(C)CC(=O)NS(=O)(=O)c1ccc(NC(=O)c2ccco2)cc1 | -15% | 10%
C[C@@H]1CN([C@@H](C)CO)C(=O)c2cc(Br)cnc2O[C@@H]1CN(C)Cc1ccc(Oc2ccccc2)cc1 | -14% | ?
Clc1ccccc1-c1ccc(/C=N/Nc2nncc(-c3ccccc3)n2)o1 | -9% | -29%
NC(=O)C1CCN(C(=O)c2ccc(F)c(S(=O)(=O)N3CCOCC3)c2)CC1 | i | -6%
COc1ccc(NC(=O)c2c(NC(=O)COc3ccccc3)sc3c2CCC(C)C3)cc1 (centres undefined) | -8%[7.34 µM] | -10%[7.34 µM]
COc1ccccc1C(=O)N1CCC(N2CCN(c3ccccc3OC)CC2)CC1 | -16% | -5%
Cc1ccccc1OCC(=O)NS(=O)(=O)c1ccc(Cl)cc1 | -19% | -8%
CCOC(=O)c1ccccc1NC(=O)COC(=O)CN1C(=O)C2CC=CCC2C1=O (centres undefined) | i | -6%
Cc1ccc(NC(=O)CN2C(=O)NC3(CCCc4ccccc43)C2=O)c(Cl)c1 (centres undefined) | ? | -5%
COc1ccc(C)cc1S(=O)(=O)NC(C)C(=O)Nc1ccc2c(c1)OCO2 (centres undefined) | 6% | 8%
COC(=O)c1c(NS(=O)(=O)Cc2ccccc2)sc2c1CCCC2 | -20% | -4%
Cc1ccc(OCCC(=O)OCC(=O)Nc2c(C)nn(-c3ccccc3)c2C)cc1 | -15% | -8%
Cn1c(N)c(C(=O)CSc2nnc3n2CCCCC3)c(=O)n(C)c1=O | -8% | -5%
COc1cc(NC(=O)Cn2c(=O)n(CC(=O)NCCc3ccc(OC)c(OC)c3)c(=O)c3sccc32)cc(OC)c1 | -14% | -14%
O=C(Nc1ccccc1N1CCN(C(=O)c2ccccc2)CC1)c1ccco1 | -10% | 1%
Cc1cc(C)c(NC(=O)CNC(=O)c2ccccc2OCc2c(C)noc2C)c(C)c1 | -14% | -5%
COC(=O)c1cc(NC(=O)c2ccc(F)cc2)cc(C(=O)OC)c1 | i | 7%
NS(=O)(=O)c1ccc(NC(=O)COC(=O)C2(c3ccccc3F)CCCC2)cc1 | -27% | -24%

3 neighbouring entries already listed, quoted:
SMILES | VACV mCherry inh | VACV Venus inh
O=C(NC1CC1)C1=C[C@H](c2coc3ccccc3c2=O)C[C@H](OCc2ccc(CO)cc2)O1 | i | -9%
CC(=O)N1C[C@H]2CON(C)[C@H]2C[C@H]1c1cccc(N2CCOCC2)c1 | -12% | -11%
COc1ccc(-c2csc(N(CC(C)C)C(=O)c3ccco3)n2)cc1 | -19% | -3%

Some of the entries so far, with values under each structure.
Below each compound: VACV mCherry inh | VACV Venus inh
CCc1ccccc1NC(=S)N(CCN(C)C)Cc1cccs1
  -22% | -14%
CCN(Cc1ccncc1)C(=S)Nc1ccc(Cl)cc1
  i | -10%
COc1ccc(NC(=O)c2c(NC(=O)COc3ccccc3)sc3c2CCC(C)C3)cc1 (centres undefined)
  -8%[7.34 µM] | -10%[7.34 µM]
COc1ccc(C(=O)N2CCN(C)C(=O)[C@@H]2C)cc1OC1CCN(C(C)C)CC1
  -2% | -7%

Screens from PubChem BioAssay.
